Source: PubChem BioAssay
ALR inh: inhibitors of human ALR sulfhydryl oxidase, primary screen, biochemical, H2O2 detection, HRP-luminol luminescence, single point; FAD-linked sulfhydryl oxidase ALR (Homo sapiens), P55789; purified ALR, DTT oxidation; inhibition, % (test concentration not listed); 3.8% of 290,000 active; AID 485317, 2010;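 active = mean and each replicate at 75% or more; inconclusive = only one of the two met; inactive = neither met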;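 also: stock transfer was 7.5 nL into about 7.5 µL; 0% = neutral wells and 100% = wells with inactivated enzyme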
Target sequence (P55789 whole entry, looked up): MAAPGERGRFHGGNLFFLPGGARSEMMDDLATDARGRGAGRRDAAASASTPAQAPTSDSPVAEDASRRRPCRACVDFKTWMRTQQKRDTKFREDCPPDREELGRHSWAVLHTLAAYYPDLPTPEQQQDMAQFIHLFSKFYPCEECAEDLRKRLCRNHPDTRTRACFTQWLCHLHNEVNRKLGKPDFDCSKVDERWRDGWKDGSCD
FGF22 binding: binders of human FGF22 protein, primary screen, FGF22 synaptogenesis inhibitor project, biophysical, thermal shift, single point | calls only at 9.99 µM | Fibroblast growth factor 22 (Homo sapiens), Q9HCT0 | recombinant FGF22 thermal shift, SYPRO orange fluorescence; percent of sucrose octasulfate shift, DMSO zero | 1.5% of 340,000 active | AID 651658, 2012;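 active = melting point raised past a set limit in the mean and every replicate; inconclusive = no clear call; three in four hits are not shown here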
Target sequence (Q9HCT0 whole entry, looked up): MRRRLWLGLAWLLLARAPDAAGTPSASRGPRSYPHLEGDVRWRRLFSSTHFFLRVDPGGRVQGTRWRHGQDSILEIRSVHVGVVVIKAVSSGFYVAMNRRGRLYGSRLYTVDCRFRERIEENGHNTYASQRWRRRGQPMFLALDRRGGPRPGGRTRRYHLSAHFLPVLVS
RanGTP-Impb inh: inhibitors of RanGTP-importin-beta interaction, primary screen, biochemical, FRET, CFP-Ran, YFP-importin-beta, homogeneous. Ran GTPase (GTP-bound) - importin-beta complex. cell-free CFP-Ran/YFP-importin-beta FRET ratio. inhibition, % (concentration not given with the values). 1.1% of 300,000 active. AID 2216, 2009;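 active = most replicates above 15%; inconclusive = exactly half above 15%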;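 also: 0% = DMSO wells and 100% = Ran loaded with GDP instead of GTP; wells of about 40 µL received 100 nL stock; the first replicate is given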
T cruzi repl: inhibitors of intracellular T. cruzi growth, primary screen, luminescence, NIH3T3 host cells; AID 1885, 2009; inhibition, % (test concentration not listed); 1.4% of 300,000 active; T. cruzi beta-gal in NIH3T3, 90 h;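 active = mean inhibition across valid replicates above about 55%, limit read from the data; inconclusive = mean below that limit but half or more replicates reach it; inactive = mean below it, under half of replicates reach it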;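 also: signal also drops with host cell toxicity which is not excluded here; 0% = plate median of DMSO wells and 100% = zero luminescence signal; higher percent means less beta-gal luminescence so fewer parasites; stock transfer was 50 nL into about 50 µL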
AF4-AF9 inh: inhibitors of AF4 peptide binding to AF9, primary screen, biochemical, AlphaScreen, biotin-AF4 peptide, FLAG-AF9, single point; Protein AF-9 (Homo sapiens), P42568; inhibition, % at 10 µM; 0.47% of 350,000 active;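 active = every replicate reaching a set inhibition limit, whatever the replicate mean, cut at about 25% in these data; inconclusive = mean inhibition reaches that limit but some replicates miss it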;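 also: 0% = plate neutral control median and 100% = total signal loss; the record names both 10 and 1 µM as test concentration; the first replicate is given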
Target sequence (P42568 whole entry, looked up): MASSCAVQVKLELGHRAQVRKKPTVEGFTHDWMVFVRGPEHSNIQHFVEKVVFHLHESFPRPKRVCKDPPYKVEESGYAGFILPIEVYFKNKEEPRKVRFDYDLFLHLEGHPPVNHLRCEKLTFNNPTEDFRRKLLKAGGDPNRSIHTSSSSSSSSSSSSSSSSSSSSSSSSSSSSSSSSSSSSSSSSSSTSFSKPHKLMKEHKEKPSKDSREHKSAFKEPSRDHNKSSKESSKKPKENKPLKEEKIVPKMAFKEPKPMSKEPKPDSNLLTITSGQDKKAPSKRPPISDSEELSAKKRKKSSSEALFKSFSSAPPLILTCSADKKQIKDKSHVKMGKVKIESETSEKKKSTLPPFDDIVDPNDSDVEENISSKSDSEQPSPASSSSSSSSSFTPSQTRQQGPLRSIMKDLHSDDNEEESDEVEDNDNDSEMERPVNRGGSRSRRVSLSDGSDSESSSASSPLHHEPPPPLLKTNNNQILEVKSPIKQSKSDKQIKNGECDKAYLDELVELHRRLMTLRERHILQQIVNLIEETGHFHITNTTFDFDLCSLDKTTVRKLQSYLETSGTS
rRNA inh HTS: reduced GFP signal of wild-type E. coli, primary screen, bacterial rRNA inhibitor project, GFP/RFP fluorescence, OD600, single point; E. coli WT GFP vs humanized-ribosome RFP mutants, 24 h; active compounds read low; DMSO median 0, no signal -100; GFP signal change (wild-type ribosome), % (no concentration beside the values); 1.6% of 350,000 active;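 active = significant combined selectivity score with lowered wild-type GFP, culture density cut under 30%, mutant RFP and density less affected; inactive = any of these conditions unmet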; also: one replicate is shown; some compounds called inactive have numbers as strong as hits
Calb FLC: C. albicans growth inhibition with fluconazole, primary screen, CaCi-2 strain, Alamar Blue fluorescence. C. albicans CaCi-2 (fluconazole-resistant clinical isolate) + fluconazole, 48 h. growth inhibition, % (concentration not given with the values). 0.57% of 300,000 active;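 active = most replicates above 75%; inconclusive = exactly half above 75%; inactive = most below 75%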;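 also: all wells also contain fluconazole at 8 µg/ml as a sub-toxic cotreatment; 0% = median of DMSO wells and 100% = median of geldanamycin control wells; wells of about 8 µL received 7.5 nL stock; the first replicate is given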
Beta apoptosis: inhibitors of cytokine-induced beta cell apoptosis, primary screen, luminescence; protection from apoptosis, % (concentration not given with the values); INS-1E cytokine-induced death, ATP luminescence, 48 h; percent of positive-control rescue, neutral wells zero; 0.8% of 300,000 active;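 active = all replicates at 75% or more, or half of them and the mean; inconclusive = half reach 75% but not the mean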;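 also: 0% = cytokine-treated negative control wells and 100% = positive control rescue; higher means more ATP so stronger rescue from cytokine killing; wells of about 40 µL received 100 nL stock; the first replicate is given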
rRNA inh HTS OD600: also measured in rRNA inh HTS; calls as there; OD600 change, %; measured here: OD600 growth;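 optical density of the mix in the first replicate; 0 = DMSO median and -100 = no signal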
rRNA inh HTS RFP: also measured in rRNA inh HTS; calls as there; RFP signal change, %; measured here: RFP humanized mutant strains;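 first replicate; 0 = DMSO median and -100 = no signal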
* marks the source's active call; other numbers are inactive results; i = inactive; ? = inconclusive; nt = not tested or not shown; + = active, no number. The list is partial. The share of hits here may be higher or lower than overall.

SMILES	ALR inh	FGF22 binding	RanGTP-Impb inh	T cruzi repl	AF4-AF9 inh	rRNA inh HTS	rRNA inh HTS OD600	rRNA inh HTS RFP	Calb FLC	Beta apoptosis
Cc1c(S(=O)(=O)NC(C)c2ccccc2)c(=O)n(C)c(=O)n1C (centres undefined)	-4	i	0.9	-5	-1.7	9	6	-1.5	-5	2
COCCOC(=O)C1=C(C)NC(C)=C(C(=O)OCCOC)C1/C=C/c1ccccc1OC	0	i	6.6	16	1.5	-10	-6	4.4	7	1
CCOC(=O)c1sc(NC(=O)CC(C)c2ccccc2)nc1C (centres undefined)	-11	i	-2.9	6	-5.9	5	2	-0.2	10	-2
O=C(Nc1ccccc1C(=O)NCc1ccccc1)c1ccccc1	1	nt	nt	7	nt	nt	nt	nt	7	0
CCN(CC)CCNC(=O)C1CCN(S(=O)(=O)N2CCCCC2)CC1	-4	nt	-0.9	10	nt	nt	nt	nt	2	-7
COc1ccc(-c2csc(NCc3ccco3)n2)cc1	4	nt	6.2	18	nt	nt	nt	nt	-23	3
CCCCC(=O)N(CCOC)c1nnc(-c2ccc(OC)cc2)s1	5	nt	?	8	nt	nt	nt	nt	0	0
COc1ccc(C)cc1NC(=O)C(OC(=O)CNC(=O)c1ccc(Oc2ccccc2)cc1)c1ccccc1 (centres undefined)	-2	i	2.4	17	-1.8	6	11	-1.5	5	1
CCCC(C)C(=O)Nc1nnc(C)s1 (centres undefined)	-22	nt	-3.3	-1	nt	nt	nt	nt	-1	-6
COc1ccc(-c2cc(C(=O)Nc3ccccc3)on2)cc1	nt	i	1.9	-9	-0.4	5	11	-0.9	24	-2
Cc1cc(-c2ccc(C)c(S(=O)(=O)NCCCN3CCN(c4ccccc4F)CC3)c2)on1	-6	i	-1.6	14	3.5	-24	-41	-5.6	?	29
Cc1ccnc(NS(=O)(=O)c2ccc(NC(=O)C3CCCO3)cc2)n1 (centres undefined)	-8	nt	0.7	-11	nt	nt	nt	nt	24	3
COc1ccc(CNCc2ccc(C(F)(F)F)cc2)cc1OC	-1	i	1.5	-13	-0.2	0	3	-2.4	-8	-2
C=CCNC(=O)N1CCC(n2nccc2NC(=O)CCc2ccccc2)CC1	-4	i	0.0	-19	-0.1	1	6	-0.3	-10	-3
COc1ccc(Br)cc1CN1CCN(S(=O)(=O)Cc2ccccc2)CC1	-6	i	2.8	27	-3.7	-46	-64	-8.6	2	4
CCc1nc(NCC2CCCO2)c(C#N)c2c1COC(C)(C)C2 (centres undefined)	-7	nt	-0.5	13	nt	nt	nt	nt	-2	0
C1CCc2c(nnc3c2-c2nonc2CC3)C1	-9	i	-1.0	-3	3.2	0	1	0.8	-9	-5
N#CCc1c(C#N)c(N)nc(N2CCN(Cc3ccc4c(c3)OCO4)CC2)c1C#N	-2	nt	nt	-5	nt	nt	nt	nt	13	5
COC(=O)/C(=N\Nc1ccccc1)Sc1nnc(-c2ccc(OC)cc2)n1C	16	nt	3.2	9	nt	nt	nt	nt	-11	-5
COc1cccc(NC(=O)CCC2CCN(C(=O)c3scnc3C)CC2)c1	nt	i	5.0	-6	-0.5	10	8	0.2	31	-6

Compound profiles, as listed above. Order of screens: ALR inh | FGF22 binding | RanGTP-Impb inh | T cruzi repl | AF4-AF9 inh | rRNA inh HTS | rRNA inh HTS OD600 | rRNA inh HTS RFP | Calb FLC | Beta apoptosis
Record of COC(=O)/C(=N\Nc1ccccc1)Sc1nnc(-c2ccc(OC)cc2)n1C → 16 | nt | 3.2 | 9 | nt | nt | nt | nt | -11 | -5
Record of C1CCc2c(nnc3c2-c2nonc2CC3)C1 → -9 | i | -1.0 | -3 | 3.2 | 0 | 1 | 0.8 | -9 | -5

The results go on:
SMILES	ALR inh	FGF22 binding	RanGTP-Impb inh	T cruzi repl	AF4-AF9 inh	rRNA inh HTS	rRNA inh HTS OD600	rRNA inh HTS RFP	Calb FLC	Beta apoptosis
O=C(NCc1cccnc1)C1CC(=O)N(CCc2ccccc2)C1 (centres undefined)	-12	i	?	0	-0.4	-4	7	1.3	0	nt
CC(=O)Nc1cccc(N)c1	-21	i	nt	nt	nt	6	7	6.3	nt	-1
Cc1csc(NC(=O)CSc2nnc(NC(=O)COc3ccccc3)s2)n1	nt	i	-1.7	-1	6.3	5	11	0.2	-10	-4
O=C1CCCN1CCCNC(=S)Nc1cccc2ccccc12	-14	nt	1.2	-8	-1.2	6	-2	8.8	-5	-6
CC(Oc1ccccc1)C(=O)NC1CCCCCCC1 (centres undefined)	3	i	?	7	-3.0	3	5	0.7	-1	nt
CCCCCc1cc(O)c2c(C)cc(=O)oc2c1	-9	nt	-1.0	5	nt	nt	nt	nt	44	130*
CCc1ccc(OCCNc2cc(N3CCNC(C)C3)ccc2[N+](=O)[O-])cc1 (centres undefined)	-62	i	nt	nt	37*	-60	-79	-20	nt	25
Cc1ccccc1-n1c(-c2ccc(Cl)cc2)cnc1SCC(=O)NC1CCS(=O)(=O)C1 (centres undefined)	-5	nt	-0.5	10	nt	nt	nt	nt	12	nt
Cc1nc(-c2ccncc2)nc(NCCNc2ccc(C(F)(F)F)cn2)c1Cl	nt	i	3.0	36	-4.5	5	2	-4.4	-7	3
Cc1nnc(NC(=O)CSc2ccc(-c3cccnc3)nn2)s1	-6	i	6.0	-10	-3.2	1	-3	-4.4	2	-3
Cc1ccc(NC(=O)CCN2CCN(C)CC2)cc1	1	i	1.2	-7	-2.8	20	26	-1.4	7	-5
Cc1ccc(S(=O)(=O)NCCc2cccs2)cc1	-3	i	5.3	-7	-0.3	-7	-4	-1.7	3	3
CS(=O)(=O)N1CCC(C(=O)N2CCN(c3cccc(Cl)c3)CC2)CC1	13	i	-0.5	-5	-0.5	2	4	-0.2	16	-8
Cn1nc(C(=O)OCC(=O)c2ccc(Br)cc2)c2ccccc2c1=O	-2	i	nt	nt	-2.2	4	6	-3.6	nt	0
CCOc1nc(-c2ccc(C)cc2)ccc1-c1noc(COC)n1	-13	nt	-3.0	12	nt	nt	nt	nt	6	0
Cc1ccc(C(=O)N/N=C\c2ccccc2[N+](=O)[O-])cn1	nt	i	-2.7	-3	-1.1	8	9	1.5	-1	nt
Cc1ccc(NS(=O)(=O)c2c(C)[nH]c(=O)[nH]c2=O)cc1C	1	nt	3.2	-21	nt	nt	nt	nt	16	0
Cc1cc2ccccc2c(=O)n1CC(=O)NCCC1=CCCCC1	13	i	-2.6	-2	-6.1	-6	14	-3.6	-12	0
O=C(O)CN1C(=O)CSc2ccccc21	nt	nt	0.0	-7	nt	nt	nt	nt	-4	-5
Cc1cccc(NC(=O)CCS(=O)(=O)c2cccc3nonc23)c1C	nt	i	6.2	17	-1.5	7	7	-2.8	36	-5
C[C@@H](CN1C2=NC[C@H](Cc3ccc(O)cc3)N2C[C@H]1Cc1ccc(O)cc1)NC(=O)CCC1CCCCC1	-5	i	-1.2	-7	17	-46	-77	-23	16	2
COC(=O)C(Cc1cnc[nH]1)NC(=O)C1CCC(=O)N1 (centres undefined)	29	nt	1.0	-3	nt	nt	nt	nt	-17	0
CCN(CCO)C(=O)c1ccc2nc(Cc3ccc(OC)cc3)oc2c1	nt	i	2.3	-16	3.6	12	10	-1.2	4	-3
CC(=O)Nc1ccc(S(=O)(=O)N(Cc2ccccc2)c2ccccc2)cc1	0	i	?	0	-0.4	-6	-14	-1.2	3	-5
O=C(COC(=O)c1cccnc1Cl)Nc1cccc(S(=O)(=O)N2CCCCC2)c1	-3	nt	-1.9	-5	0.4	-15	-14	-5.5	-17	-4
COc1cc(/C=C/C(=O)NC(C)CCc2ccccc2)cc(OC)c1OC (centres undefined)	nt	nt	-1.7	0	nt	nt	nt	nt	3	1
CCCC(=O)N1CCCC(c2nc(-c3cccc(OC)c3)no2)C1 (centres undefined)	-6	i	4.8	-2	0.1	-6	-7	3.0	52	-6
O=[N+]([O-])C1=CC=C2C(=NC3(CCCCC3)N2O)C1=NCCO	11	i	-1.6	-2	9.8	14	3	1.5	13	-1
CC(=O)Nc1ccc(NC(=O)C(C)OC(=O)/C=C/c2cccs2)cc1 (centres undefined)	-40	i	1.7	-7	0.9	6	5	0.1	-7	-14
COc1ccccc1OCC(=O)N(Cc1nc(-c2ccc(Cl)cc2)no1)C(C)C	1	i	-1.1	22	-1.0	-40	-64	0.5	-4	-8
O=[N+]([O-])c1cc(-n2cccc2)ccc1N1CCOCC1	4	i	2.4	-5	18	2	6	1.9	14	1
N#Cc1ccc(-c2ccc(F)cc2)nc1Oc1ccc(Cl)c(Cl)c1	2	nt	1.4	0	nt	nt	nt	nt	21	23
CCCCNS(=O)(=O)c1ccc(S(=O)(=O)n2cnc3ccccc32)cc1	-10	i	nt	nt	1.7	9	-8	-1.9	nt	0
CC(C)NS(=O)(=O)c1ccc(OCC(=O)Nc2ccc3c(c2)OCCO3)cc1	-7	nt	0.4	-2	nt	-2	-10	-0.3	8	-1
O=C(COC(=O)C12CC3CC(CC(O)(C3)C1)C2)Nc1ccc(Cl)c(S(=O)(=O)N2CCOCC2)c1	-8	i	nt	nt	1.3	-7	-16	-0.9	nt	1
CCN1C(=O)[C@H]2[C@@H](c3ccc(C)cc3)N3C(=O)N(c4ccc(OC)cc4)C(=O)[C@@]3(C)[C@H]2C1=O	-2	i	-2.6	-10	-3.6	9	11	7.9	-14	0
CC1=[N+]([O-])C(N2CCOCC2)C(O)(c2ccccc2)C1 (centres undefined)	-13	nt	1.6	-11	nt	nt	nt	nt	1	-3
COC(=O)c1c(C)[nH]c(C(=O)OC(C)C(=O)N2CCOCC2)c1C (centres undefined)	-1	i	-2.7	-10	-2.8	3	4	-2.6	4	1
Cc1ccc(CNC(=O)CCOc2ccc(C(C)(C)C)cc2)cc1	-3	nt	-1.8	-8	nt	nt	nt	nt	-28	-2
CC(C)(C)OCC(O)CN1CCN(C(=O)c2ccccc2)CC1 (centres undefined)	-2	i	-4.8	-9	1.8	4	0	-2.5	-5	0
COC(=O)C1Cc2ccccc2CN1C(=O)CCl (centres undefined)	37	i	0.7	-10	0.6	19	11	0.0	-4	5
COc1cc2c(cc1OC)C(CSc1ccccc1C(=O)O)=NC(C)(C)C2	12	i	-6.4	-8	14	-13	-20	-2.9	12	1
O=C(NN=Cc1ccc(O)cc1)c1ccccc1NS(=O)(=O)c1cccs1	99*	+	nt	nt	-4.1	-37*	-1.4*	1.2*	nt	-2
CCOCCCn1cnc2c3cc(F)ccc3n(C)c2c1=O	-4	i	0.8	nt	-3.4	-6	-9	-3.0	-13	-1
COC(=O)CCC(=O)N1CCOCCOCCOCC1	-2	i	2.7	-10	-3.7	1	1	-1.1	2	-3
COc1cc2c(cc1OC)CN(C(=O)CSc1nc(N)c(C#N)cc1C#N)CC2	-1	i	3.9	-12	-83	-2	0	-8.7	0	-13
